Screening data (PubChem BioAssay)
Mtb growth = Mycobacterium tuberculosis H37Rv growth inhibition, cell based, confirmatory dose response (AID 1949); inhibition, % at 10 µg/mL, or IC50 in µg/mL where a hit was titrated; 100,000 compounds, 1.6% hits; most inactive calls were filed without a number and no value below 0 was filed;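 active = confirmed in a dose series; inconclusive = about 50% or more but not retested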;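 note: bacteria grown 7 days with compound before Alamar blue readout; 0% = untreated bacteria and 100% = reference antibiotic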
* marks the source's active call; other numbers are inactive results; i = inactive; ? = inconclusive. Only part of the results is shown; the hit share may differ from the screen's.

SMILES	Mtb growth
CS(=O)(=O)N(Cc1ccccc1)c1ccc(C(=O)Nc2ccc(S(=O)(=O)N3CCCCC3)cc2)cc1	5.5%
COc1ccc(N2CCN(C(=O)CCCN3C(=O)c4ccccc4C3=O)CC2)cc1	i
CC(=O)c1c2c(n3ccc(C)cc13)C(=O)c1ccccc1C2=O	?
O=S(=O)(Nc1ccc(O)c(-c2c(O)ccc3ccccc23)c1)c1ccccc1	i
O=[N+]([O-])c1ccc2c(c1)C1C3CCC(C3)C1C(c1ccccc1Cl)N2 (stereo unspecified)	16.5%
CC(C)Oc1ccc(C(=O)NNC(=S)NCc2ccccc2)cc1	0.6%
O=C(COc1ccccc1[N+](=O)[O-])NC(=S)Nc1ccccc1N1CCOCC1	i
O=c1c2c3c(sc2nc(SCc2ccc(F)cc2)n1-c1ccccc1)CCC3	i
CCOc1ccc(OCC)c(S(=O)(=O)n2ccnc2C)c1	1.4%
CCCCC(CC)C(=O)Nc1nnc(C2CCCCC2)s1 (stereo unspecified)	1.2%
COc1ccc(C(C)NC(=O)Nc2cccc(Cl)c2Cl)cc1OC (stereo unspecified)	7.9%
CC(=O)Nc1ccc(C(=O)NCC(=O)OCc2c(F)cccc2Cl)cc1	i
CCOCCCNC(=O)Cc1ccccc1[N+](=O)[O-]	i
O=C(CCSc1ccccc1)Nc1ccccc1C(=O)NC1CCCCC1	4.9%
CC(C)(C)c1ccc(S(=O)(=O)N2CCCC2C(=O)N2CCOCC2)cc1 (stereo unspecified)	i
COCCNS(=O)(=O)c1ccc(-c2ccc(Cl)cc2)cc1	i
CC(O)CN(Cc1cccc(Cl)c1)C(=S)Nc1ccccc1 (stereo unspecified)	i
COc1ccc(CCNC(=O)CN(c2ccc(F)cc2)S(=O)(=O)c2ccc(OC)c(OC)c2)cc1OC	i
O=C(NC(=S)Nc1ccccc1N1CCOCC1)c1ccc(I)cc1	i
CCn1c(SCC(=O)O)nnc1-c1sc2cc(Cl)ccc2c1Cl	i
CC(=O)c1ccccc1OC(=O)C(C)N1C(=O)C2C3C=CC(C4CC34)C2C1=O (stereo unspecified)	i
Cc1ccc(OCCSc2nnc3n(CCOc4ccccc4)c4ccccc4n23)cc1	2.4%
CCOc1ccccc1NC(=O)NNS(=O)(=O)c1ccc(C(C)(C)C)cc1	2.7%
CC(C)(C)c1ccc(-c2nn3c(Cc4ccccc4)nnc3s2)cc1	i
COc1ccc(Cc2nnc(SCC(=O)Nc3cc(Cl)ccc3OC)n2C)cc1	i
C=CCOc1c(Cl)cc(C2NC(=O)NC(C)=C2C(=O)OC)cc1Cl (stereo unspecified)	i
CCC(Oc1ccccc1)c1nc2ccccc2[nH]1 (stereo unspecified)	i
CCCNC(=S)Nc1sc(C)c(-c2ccccc2)c1C(=O)OC	i
Cc1cccc(NC(=O)c2cc3ccc(O)cc3oc2=O)c1	?
O=C(CS(=O)(=O)c1ccccc1)Nc1ccc(S(=O)(=O)Nc2ccccn2)cc1	i
Cc1nc(Nc2ccccc2Cl)sc1C(=O)Nc1ccccc1	10.2%
COc1ccc(C2N(Nc3ccccc3)C(=O)C23CCCCC3)cc1 (stereo unspecified)	2.7%
Cn1c(NC(=O)c2ccccc2)nc2ccccc21	0.57µg/mL*
CCN(CC)C(=O)c1sc(NC(=O)c2ccco2)c(C#N)c1C	i
CC(NC(=O)c1cc2ccccc2oc1=O)c1ccncc1 (stereo unspecified)	i
Cc1ccc(S(=O)(=O)Cc2ccc(C(=O)Nc3cccc(C(F)(F)F)c3)cc2)cc1	3.6%

3 entries from above, arranged by molar mass, lowest first:
SMILES	Mtb growth
CCC(Oc1ccccc1)c1nc2ccccc2[nH]1 (stereo unspecified)	i
CCN(CC)C(=O)c1sc(NC(=O)c2ccco2)c(C#N)c1C	i
COc1ccc(C2N(Nc3ccccc3)C(=O)C23CCCCC3)cc1 (stereo unspecified)	2.7%

Next section.
SMILES	Mtb growth
O=C(Cc1ccccc1)Nc1ccc(NC(=S)NC(=O)c2cc3ccccc3o2)cc1	i
CCc1ccc(NC(=S)NC(=O)c2cccc3c(Br)cccc23)cc1	i
COc1ccccc1Oc1ccc(S(=O)(=O)N2CCN(c3ccccc3F)CC2)cc1	i
Cc1noc(C)c1C(=O)NCCCc1ccccc1	i
OCc1ccc(OCc2ccc(F)cc2)c(Cl)c1	i
O=C(NC(=S)Nc1cccc(Cl)c1N1CCCC1)c1cccs1	26.6%
COc1c(F)c(F)c(C(=O)Nc2cc(C)c(I)cc2C)c(F)c1F	i
N#Cc1c(NC(=O)Cn2nc(C(F)(F)F)c3c2CCCC3)sc2c1CCC2	i
CCOc1ccc(N2C(=O)CC(Cc3cccc(C)c3)C2=O)cc1 (stereo unspecified)	i
O=C1CC(c2ccccc2)C(=O)N1c1cccc(O)c1 (stereo unspecified)	i
Cc1ccn2cc(-c3cccc(NC(=O)c4ccccc4F)c3)nc2c1	i
Cc1ccc(C)c(NC(=O)c2cnccn2)c1	i
CCC(=O)Nc1ccc(C(=O)Nc2ccccc2C#N)cc1	3.5%
O=c1cc2oc3cc(O)c(O)cc3c(-c3ccc([N+](=O)[O-])o3)c-2cc1O	15.2%
CCSc1nnc(NC(=O)c2c(-c3c(F)cccc3Cl)noc2C)s1	3.3%
Cn1nnc2cc(NC(=O)NCCO)ccc21	0.0%
Cc1cc2c(=O)n(Cc3ccco3)c(SCC(=O)c3ccc(Cl)s3)nc2s1	i
O=C(CSc1nnc(NC(=O)c2ccc3c4c(cccc24)CC3)s1)c1ccccc1	1.2%
N#Cc1cc2c(nc1SCc1ccc([N+](=O)[O-])cc1)CCCC2	i
O=C1C2CCCCC2C(=O)N1c1ncn[nH]1 (stereo unspecified)	i
CCC(=O)N1c2ccccc2NC2=C(C(=O)CCC2)C1c1cccc(Br)c1 (stereo unspecified)	i
Cc1ccc(S(N)(=O)=O)cc1NS(=O)(=O)c1ccc(Cl)cc1	i
Cc1cc(OCCOCCN2CCNCC2)ccc1Cl	i
C=CCNC(=O)CN(c1cccc(C(C)=O)c1)S(C)(=O)=O	i

Reformatted with each value named: part of the list above
O=C1C2CCCCC2C(=O)N1c1ncn[nH]1 (stereo unspecified)
  Mtb growth: i
N#Cc1cc2c(nc1SCc1ccc([N+](=O)[O-])cc1)CCCC2
  Mtb growth: i
Cn1nnc2cc(NC(=O)NCCO)ccc21
  Mtb growth: 0.0%
CCC(=O)N1c2ccccc2NC2=C(C(=O)CCC2)C1c1cccc(Br)c1 (stereo unspecified)
  Mtb growth: i

By substructure, the entries above containing a nitro group on carbon (5)
SMILES	Mtb growth
O=[N+]([O-])c1ccc2c(c1)C1C3CCC(C3)C1C(c1ccccc1Cl)N2 (stereo unspecified)	16.5%
O=C(COc1ccccc1[N+](=O)[O-])NC(=S)Nc1ccccc1N1CCOCC1	i
CCOCCCNC(=O)Cc1ccccc1[N+](=O)[O-]	i
O=c1cc2oc3cc(O)c(O)cc3c(-c3ccc([N+](=O)[O-])o3)c-2cc1O	15.2%
N#Cc1cc2c(nc1SCc1ccc([N+](=O)[O-])cc1)CCCC2	i

Later entries.
SMILES	Mtb growth
O=C(CSc1nc2sc3c(c2c(=O)n1Cc1ccco1)CCC3)Nc1ccc2c(c1)OCO2	i
CCOc1ccc(N(CC(=O)OC)S(=O)(=O)c2ccc(OC)c(OC)c2)cc1	i
Cc1cc(NC(=O)c2cccc(Br)c2)c([N+](=O)[O-])cc1C	5.1%
O=C(c1cc(-c2ccccc2)nc2ccccc12)N1CCN(c2ccccn2)CC1	i
Cc1ccc(NC(=S)NCC(O)c2ccccc2)c(C)c1 (stereo unspecified)	i
COc1ccc(/C(N)=N/OC(=O)CCCOc2ccc(Cl)cc2Cl)cc1OC	14.9%
COc1ccc(C2c3cc(OC)c(OC)cc3CCN2S(=O)(=O)c2cccs2)cc1OC (stereo unspecified)	i
CCC(C)Nc1nc(C)nc2c1sc1nc3c(cc12)COC(C)(C)C3 (stereo unspecified)	3.2%
CCn1c(C2CC(=O)N(c3ccccc3)C2)nc2ccccc21 (stereo unspecified)	i
C=CCc1cc(OC)ccc1OCCCSc1ncccn1	i
Cc1ccc(CC(=O)NCc2ccc(Cl)cc2)cc1	4.8%
CCc1ccc(N(CC(=O)Nc2cc(C)ccc2OC)S(=O)(=O)c2ccccc2)cc1	i
CCOC(=O)c1cc(Cc2ccccc2)sc1NC(=S)Nc1cnn(CC)c1C(N)=O	i
COc1ccc(S(=O)(=O)Nc2ccccc2SC)cc1C	i
COC(=O)c1c(-c2ccc(C)cc2)csc1NC(=O)c1ccoc1C	2.8%
COc1ccc(S(=O)(=O)Nc2ccc(C(F)(F)F)cc2)cc1OC	i
Cc1ccc(S(=O)(=O)n2nc(C)cc2C)cc1	4.7%
N#CCN(CC#N)C(=O)c1cccc(Br)c1	i
CCn1c(C)c(C(C)=O)c(N2CCN(C(=O)c3ccco3)CC2)nc1=S	i
Cc1ccc(NC(=O)C2(c3ccccc3)CCOCC2)cc1Cl	i
CCOC(=O)c1cc(Cc2ccccc2)sc1NC(=S)Nc1cc(OC)c(OC)cc1C(=O)OC	i
COc1ccc(/C=C/c2nc3ccccc3c(=O)o2)cc1	27.6µg/mL*
CCOC(=O)N1CCN(C(=O)CCC2CCCC2)CC1	i
O=C(Nc1nc(-c2cc3ccccc3oc2=O)cs1)c1ccccc1Cl	i
COc1ccc(Cl)cc1NC(=O)CN(c1c(C)cccc1C)S(C)(=O)=O	i
COc1cc(C(=O)Nc2nc3c(s2)CCCC3)c(Br)c(OC)c1OC	2.8µg/mL*
CC(C(=O)Nc1cccc(F)c1)C1Sc2ccccc2NC1=O (stereo unspecified)	i
CC(C)(C)Cc1nnc(NS(=O)(=O)Cc2ccccc2)s1	i
CCOc1ccc(C(=O)Nc2ccccc2N2CCOCC2)cc1Br	i
CC(C)NC(=O)c1ccccc1NC(=O)Cc1cccs1	i
CCSc1ccccc1C(=O)Nc1ccccc1C(=O)N1CCN(c2ccccc2)CC1	2.7%
Cc1cnc(NC(=O)c2ccc3c(c2)C(=O)N(CC2CCCO2)C3=O)s1 (stereo unspecified)	0.5%
Cc1ccc(SC(C)C(=O)Nc2cccc(C)n2)cc1 (stereo unspecified)	3.6%
C=CCOc1c(Cl)cc(CNc2nccs2)cc1OC	?
CCOc1ccccc1NC(=O)c1c(NCc2ccc(C)o2)sc2c1CCCCC2	i
CCOC(=O)C1CCN(C(=O)C2CCN(Cc3ccccc3OC)CC2)CC1	0.7%
C=CCNC(=O)c1ccccc1NC(=O)CN(c1ccc(Cl)cc1)S(=O)(=O)c1ccc(C)cc1	0.7%
COc1ccc(C(=O)NC(=S)Nc2ccc(N(C)C)cc2)cc1Br	i
COc1cccc(OCC(O)CN2C(C)(C)CC(O)CC2(C)C)c1 (stereo unspecified)	i
CCOC(=O)N1CCN(S(=O)(=O)c2ccc(OC)c(C)c2C)CC1	i
O=C(Cc1ccc(F)cc1)Nc1ccc(Cl)c(C(F)(F)F)c1	1.2µg/mL*
COc1ccc(N2CCN(C(=O)c3ccc(N(Cc4ccccc4C)S(C)(=O)=O)cc3)CC2)cc1	i
O=c1oc2cc(OCc3ccc(F)cc3F)ccc2cc1-c1ccccn1	i
CN1CCN(C(=O)Cc2cccc3ccccc23)CC1	i
COc1ccc(Cc2nnc(SCC(=O)Nc3ccc(Cl)cc3Cl)o2)cc1	i
CCN(CC)C(=O)C1CCCc2c1[nH]c1ccc(Cl)cc21 (stereo unspecified)	i
O=C(c1ccc(F)cc1)c1cccnc1	i
O=C(CSc1nnnn1-c1ccccc1)OCc1ccccc1	i

Reformatted in CSV form: part of the list above
compound,Mtb growth
Cc1ccc(SC(C)C(=O)Nc2cccc(C)n2)cc1 (stereo unspecified),3.6%
C=CCOc1c(Cl)cc(CNc2nccs2)cc1OC,?

Continuation:
SMILES	Mtb growth
O=C(NCCC1=CCCCC1)c1ccccc1N(Cc1ccccc1)S(=O)(=O)c1ccccc1	4.2%
COc1ccc(NC(=O)CN(C)S(=O)(=O)c2ccc(OC)c(OC)c2)cc1Cl	i
CCOc1ccccc1NC(=O)CSc1ncnc2scc(-c3ccc(Cl)cc3)c12	i
O=C(O)C1CC(=O)N(c2ccccc2F)C1 (stereo unspecified)	i
CC(C)(C)c1ccc(C(=O)Nc2cnccn2)cc1	i
CCC(C)NCCCOc1ccccc1Br (stereo unspecified)	i
O=C(O)C1Nc2c(C(=O)N3CCOCC3)cccc2C2C=CCC12 (stereo unspecified)	i
O=C(CCc1ccccc1)Nc1cccc(C(=O)N2CCOCC2)c1	i
O=C(Nc1c(F)c(F)c(F)c(F)c1F)c1ccccc1	i
C=C(C)CC1N(c2cccc(OC)c2)C(=O)C2C(C(=O)O)C3C=CC21O3 (stereo unspecified)	i
CCCOc1ccc(/C=C(\C#N)S(=O)(=O)c2ccccc2)cc1	i
COc1ccc(-c2noc(CCCc3ccccc3)n2)cc1	1.8%
CS(=O)(=O)N(CC(=O)Nc1ccc(C(N)=O)cc1)C1CCCCC1	i
CS(=O)(=O)n1nc(-c2ccc(Cl)cc2)nc1SCc1ccccc1	39.1%
Cc1sc2nc(SCc3nc(-c4ccccc4)no3)n(-c3ccccc3)c(=O)c2c1C	i
CCc1ccc(OCC(=O)Nc2ccc(S(=O)(=O)N3CCCC3)cc2)cc1	i
C=CCOc1ccc(CNCc2ccccc2Cl)cc1OC	i
CC(C)CC(NC(=O)c1ccc(Cl)cc1Cl)c1nnc(SCC(=O)Nc2cccc3ccccc23)n1C (stereo unspecified)	i
N#Cc1c(C(F)(F)F)cc(Cc2ccccc2)nc1SCc1ccc(C(=O)O)cc1	i
CC(C)COc1ccc(NC(=O)C(=O)NC2CCC(C)CC2)cc1 (stereo unspecified)	i
CN(CC(=O)Nc1cccc(Br)c1)S(=O)(=O)c1cc(Cl)ccc1Cl	i
CCOC(=O)c1c(C)oc2cc(Br)c(OC)cc12	i
COc1ccc(OC)c(C2NC(=S)NC(C)=C2C(=O)Nc2ccccc2F)c1 (stereo unspecified)	3.3%
Cc1ncc([N+](=O)[O-])n1CC(=O)N(C)c1ccccc1	i
CCOc1ccccc1NC(=O)C1CCCO1 (stereo unspecified)	2.9%
CC(C)(C)C(=O)COC(=O)c1ccc(CNc2ccccc2)cc1	i
CCOc1ccc(C(=O)Nc2cccc(NC(=O)C(C)C)c2)cc1[N+](=O)[O-]	i
